Bioassay records (PubChem BioAssay)
eIF4H inh – human eIF4H binding inhibitors, primary screen, translation initiation inhibitor project, biochemical, uHTS, fluorescence polarization | AID 2012, 2009 | eIF4H fluorescence polarization binding assay | Eukaryotic translation initiation factor 4H (Homo sapiens), Q15056 | hit rate 0.94% among 290,000 | inhibition, % at 35 µM;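 active = 50% or more with normal probe brightness, or confirmed in later tests; inconclusive = above 50% with abnormal brightness, or retests that disagree; inactive = below 50% or failed in later tests; about a fifth of its hits are not listed in these tables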;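 note: calls also rest on retests at 20 µM and on dose response follow-up; 0% = protein and probe with vehicle and 100% = probe without protein; strong numbers were not always called active; many hits fall short of the cut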
MT1-MMP act inh – blockers of MT1-MMP proenzyme processing, primary screen, HT1080 RFP-PRO-GFP cells, GFP/RFP fluorescence. GFP/RFP ratio fluorescence, overnight; percent of plate control window, DMSO zero. GFP/RFP ratio change, % at 20 µM. hit rate 0.061% among 360,000. Matrix metalloproteinase-14 (Homo sapiens), P50281;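 active = GFP/RFP ratio change of at least 30% with cell ATP level not reduced by more than half and red fluorescence within 50% of control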; note: strong numbers were not always called active
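Assay system: RFP-PRO-GFP reporter HT1080 cells; read-out basis: GFP/RFP fluorescence ratio; benchmarks: DMSO wells and RFP-L50D-GFP cells; doses: 20 µM single dose, 1% DMSO; schedule: overnight cell settling, then overnight compound exposure, 37 °C, 5% CO2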
HIV Env fusion – inhibitors of HIV-1 Env-driven cell-cell fusion, primary screen, HeLa-JRFL effector, CEM21 target cells, luciferase; inhibition, % at 12.3 µM; hit rate 1.1% among 360,000; AID 651610, 2012;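 active = mean replicate inhibition score of at least 50 and every replicate individually at or above 50; inconclusive = only one of the two criteria met; inactive = mean below 50 and not all replicates reaching 50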;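 note: 0% = plate neutral controls and 100% = maraviroc near 300 nM; one replicate is shown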
PABP polyA inh – PABP poly(A) RNA binding inhibitors, primary screen, biochemical, fluorescence polarization, uHTS; AID 2014, 2009; inhibition, % at 35 µM; hit rate 1% among 290,000; Polyadenylate-binding protein 1 (Homo sapiens), P11940;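 active = 50% or more with normal probe brightness, or confirmed in later tests; inconclusive = above 50% with abnormal brightness, or retests that disagree; inactive = below 50% or failed in later tests; about a fifth of its hits are not listed in these tables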;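 note: calls also rest on retests at 20 µM and on dose response follow-up; controls were probe without protein and protein plus probe with vehicle; some compounds called inactive have numbers as strong as hits; many hits fall short of the cut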
Yeast UUG start – modulators of yeast start codon fidelity, primary screen, whole organism, S. cerevisiae, single point, plate reader; S. cerevisiae UUG-firefly luciferase reporter, luminescence/redox ratio; activity score, % at 18.7 µM; hit rate 0.13% among 350,000;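 active = replicate mean at a twofold rise or more, about +100% in these data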;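 note: firefly luciferase made from a UUG start codon reports start codon fidelity; reporter light over untreated wells divided by growth signal over untreated wells; some hits fall short of that in this replicate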
Rce1 inh – yeast Rce1p protease inhibitors, primary screen, biochemical, fluorescence, cell-free homogeneous | CAAX prenyl protease 2 (Saccharomyces cerevisiae (strain ATCC 204508 / S288c)), Q03530 | yeast membranes, quenched prenylated peptide cleavage fluorescence | calls only | hit rate 0.27% among 290,000 | AID 2563, 2010;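 active = fall in fluorescence gain of 50% or more versus controls, with final raw signal at or below 3038400; inconclusive = same 50% fall but final raw signal above 3038400; inactive = fall in fluorescence gain under 50%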;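 note: plate controls were neutral control wells for no effect and wells lacking membranes for full effect; tested at 10 µM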
Target sequence (Q03530 whole entry, looked up): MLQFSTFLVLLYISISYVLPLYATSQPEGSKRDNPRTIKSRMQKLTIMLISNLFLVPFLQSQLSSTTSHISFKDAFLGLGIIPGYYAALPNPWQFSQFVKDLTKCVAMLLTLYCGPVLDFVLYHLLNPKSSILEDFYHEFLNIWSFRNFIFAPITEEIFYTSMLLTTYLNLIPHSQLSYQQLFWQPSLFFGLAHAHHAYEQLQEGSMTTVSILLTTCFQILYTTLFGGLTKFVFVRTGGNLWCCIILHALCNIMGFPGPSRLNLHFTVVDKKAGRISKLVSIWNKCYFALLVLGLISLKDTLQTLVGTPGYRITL
CSC inhib – cancer stem cell viability inhibitors, primary screen, luminescence; cancer stem cell-like cells viability; inhibition, % at 7.5 µM; hit rate 1.1% among 300,000; AID 2717, 2010;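 active = mean at 75% or more and at least half the replicates too; inconclusive = mean and replicates disagree; tested in HMLE shEcad cells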;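 note: 0% = median of negative and 100% = median of positive control wells; the first replicate is given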
MT1-MMP act inh RFP – also measured in MT1-MMP act inh; calls as there; RFP signal change, %; measured here: RFP expression control read;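 0 = vehicle wells; hits needed this value within 50% of zero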
* marks the source's active call; other numbers are inactive results; i = inactive; ? = inconclusive; . = not tested or not shown. An excerpt; count on the stated rates, not on these rows.

A first look (4 entries):
SMILES	eIF4H inh	MT1-MMP act inh	MT1-MMP act inh RFP	HIV Env fusion	PABP polyA inh	Yeast UUG start	Rce1 inh	CSC inhib
CCn1c(COc2ccc(=O)n(-c3ccccc3)n2)nnc1SCc1cccc(OC)c1	-7	-2	0	-44	-1	-10	i	-16
O=S(=O)(Nc1ccc(-c2ccc(N3CCOCC3)nn2)cc1)c1ccc(Cl)c(Cl)c1	.	-6	-13	9	.	-6	i	16
CNC(=O)c1cc(S(=O)(=O)Nc2ccc(C)cc2C)ccc1C	-1	2	-7	5	3	6	i	-13
CC(=O)N1CCc2cc(S(=O)(=O)NC(CC(C)C)C(=O)Nc3cc(C)ccn3)ccc21 (configuration not stated)	-6	-12	-3	.	-12	13	i	-18

Main list, from the first entry:
SMILES	eIF4H inh	MT1-MMP act inh	MT1-MMP act inh RFP	HIV Env fusion	PABP polyA inh	Yeast UUG start	Rce1 inh	CSC inhib
CCn1c(COc2ccc(=O)n(-c3ccccc3)n2)nnc1SCc1cccc(OC)c1	-7	-2	0	-44	-1	-10	i	-16
O=S(=O)(Nc1ccc(-c2ccc(N3CCOCC3)nn2)cc1)c1ccc(Cl)c(Cl)c1	.	-6	-13	9	.	-6	i	16
CNC(=O)c1cc(S(=O)(=O)Nc2ccc(C)cc2C)ccc1C	-1	2	-7	5	3	6	i	-13
CC(=O)N1CCc2cc(S(=O)(=O)NC(CC(C)C)C(=O)Nc3cc(C)ccn3)ccc21 (configuration not stated)	-6	-12	-3	.	-12	13	i	-18
CCOc1ccc(NC(=O)NN2C(C)CCCC2C)cc1 (configuration not stated)	5	0	-2	-8	13	-1	i	-4
COc1ccc2[nH]c3c(c2c1)CCN1C(=O)C(CC(=O)NCCC2=CCCCC2)C[C@H](C(=O)N(C(C)C)C(C)C)[C@@]31C (some centres not stated)	.	-5	-16	-17	.	4	.	.
O=C1/C(=C/c2ccccc2Cl)SC(=S)N1CCC(=O)N1CCCCC1CCO (configuration not stated)	-6	0	-1	20	-7	-25	i	11
O=C(c1cccc(N2CCNC2=O)c1)N1CCCC(Nc2cccc(F)c2)C1 (configuration not stated)	-11	-1	1	7	-4	-2	i	-5
CCOc1ccccc1CN1CCC(Oc2ccc(C(=O)NCc3ccccn3)cc2)CC1	4	-1	-3	-6	13	-21	i	.
CC(C)Cc1nnc(NC(=O)CSc2ncn[nH]2)s1	-13	2	0	.	9	0	i	-10
COc1ccc(NC(=O)Nc2c[nH]c(=O)[nH]c2=O)cc1	0	0	1	18	-8	-1	i	11
CCCCNC(=O)C1(C)CCCCN1C(=O)c1cncc(Br)c1 (configuration not stated)	.	3	4	-33	.	-13	.	.
Cc1cccc(N2CCN(C(=O)Cn3nc(C)n4cccc4c3=O)CC2C)c1 (configuration not stated)	-9	-3	2	-1	-12	-9	i	-16
CCCC(=O)C1=C(N(C)c2ccccc2)CC(C)(C)C(C(=O)OC)C1=O (configuration not stated)	-20	2	4	.	-3	-7	i	6
CC(=O)N[C@H]1[C@H](OCc2ccccc2F)O[C@H](COC(C)=O)[C@@H](OC(C)=O)[C@@H]1OC(C)=O	6	-2	3	11	2	-12	i	-10
Cc1cc(C)n(-c2nc(NCCO)c3c4c(sc3n2)CCCC4)n1	-15	-1	6	.	-12	-11	i	-3
COc1cc(/C=N/n2nnnc2N)ccc1O	-2	4	-1	-91	-2	-15	i	-5
NC(=O)c1ccc(NC(=O)C2CCCC2)cc1	-8	2	2	12	5	-11	.	-5
CC(=O)N1CCN(CC(=O)c2ccc(Br)cc2)CC1	1	0	7	-13	1	.	i	11
CC(=O)Nc1ccc(N(C)S(C)(=O)=O)cc1	-2	-1	-4	-44	3	4	i	-7
Cc1cccc(CSC2=NCCN2C(=O)c2ccc(S(=O)(=O)N(C)C)cc2)c1	-4	1	8	10	13	.	i	-2
COc1cccc(S(=O)(=O)NCc2ccc(C(=O)NCc3ccccn3)cc2)c1	-1	1	6	-29	2	-26	i	-9
Cc1cc(C(=O)NN=Cc2c(C)[nH]c3ccccc23)c(C)o1	.	2	2	.	.	-22	.	-1
CC(C)c1ccc(OCC(=O)NNC(=S)NC(=O)c2ccco2)c(Br)c1	7	4	3	-325	-2	-8	i	-1
Cc1cccc(NC(=O)c2ccc([N+](=O)[O-])s2)n1	-6	4	-16	-12	3	-6	i	-14
Nc1nccc(SCc2ccc(Cl)cc2Cl)n1	.	-1	-2	-3	.	-13	.	.
Cc1ccc(-c2nnn(CC(=O)N(CC3CCCO3)C(C(=O)NC3CCCCC3)c3ccc(F)cc3)n2)o1 (configuration not stated)	-4	-5	1	116*	-5	-12	i	-14
O=C1C2C3C=CC(C3)C2C(=O)N1c1ccc2ccccc2c1 (configuration not stated)	-6	-2	4	-10	1	2	i	6
CC(C)CN(C(=O)COC(=O)c1ccc(C#N)cc1)C1CCS(=O)(=O)C1 (configuration not stated)	.	-3	-1	.	.	4	.	2
O=C(COc1ccc2c(-c3ccccc3)cc(=O)oc2c1)NCc1ccccn1	-2	7	-5	.	12	-17	i	-5
COCCCC1CCN(Cc2nc(-c3ccccc3)no2)CC1	-10	3	1	4	-3	.	i	-7
CN1C(CC(=O)Nc2ccc(Br)cc2)c2ccccc2CC1(C)C (configuration not stated)	-3	5	5	5	-12	.	i	0
O=C(CCN1C(=O)/C(=C/c2ccccc2F)SC1=S)NCCCN1CCOCC1	0	0	3	-21	-3	-8	i	-3
CC(C)(C)n1nnnc1C(c1cccc(C#N)c1)N1CCCc2ccccc21 (configuration not stated)	-12	-6	-2	.	5	-3	i	-2
COc1ccccc1C1=NOC(Cn2c(NCCCO)nc3c2c(=O)n(C)c(=O)n3C)C1 (configuration not stated)	1	5	5	-12	-4	-3	i	3
COc1ccc(NC(=O)COC(=O)CCNC(=O)c2ccco2)cc1Cl	.	2	3	-10	.	-15	.	-6
O=C(C1CCN(S(=O)(=O)N2CCC3(CC2)OCCO3)CC1)N1CCOCC1	-11	3	2	.	12	-23	i	-3
CC(=O)Nc1ccc(SCC(=O)Nc2ccccc2Oc2ccccc2)cc1	4	1	-11	33	0	0	i	13
Cc1ccc(C(=O)COc2ccccc2-c2ccccc2)cc1	-10	-3	-3	10	-2	.	i	9
CN(C)/C=N/c1nc(-c2ccc3ccccc3c2)cs1	-9	-2	-2	-135	12	-13	i	5
CN1CCN(Cc2cc(COCc3ccccc3)c3cccnc3c2O)CC1	18	-13	-11	-37	2	16	.	1
COc1ccc(/C=C(\NC(=O)c2ccccc2)C(=O)N2CCC(C)CC2)cc1	.	1	2	-8	.	13	.	.
O=[N+]([O-])c1cccc(NC(=S)N2CCCC2)c1	-2	1	3	15	-8	-14	i	-16
Cc1ccc(C)c(NC(=O)C2CC(O)CN2C(=O)OC(C)(C)C)c1 (configuration not stated)	13	-1	5	.	4	-14	i	-7
CSCc1ccc(C(=O)NCc2ccccc2)cc1	-4	0	2	.	1	.	i	7
Cc1ccc(NC(=O)CSc2nnc(Cn3c(=O)sc4ccccc43)n2C)cc1	-2	-3	4	16	33	-7	i	-4
COc1ccc(OC)c(CN2CCN(Cc3ccc(OC)c(OC)c3OC)CC2)c1	.	4	9	-13	.	-10	.	.
C=CCN(c1ccccc1)S(=O)(=O)c1cc2c(cc1C)N(C)CCO2	-13	2	0	-4	2	-10	i	14
OC1CCCN(c2c3c(nc4cc(-c5cccc(Cl)c5)nn24)CCC3)C1 (configuration not stated)	-5	-4	-8	.	-7	-47	i	.
COc1ccc(-n2nnc3c(=O)n(CC(=O)Nc4cc(C)on4)cnc32)cc1	3	-1	0	10	-11	.	i	-13
Cc1cccn2c(=O)c3cc(S(=O)(=O)c4ccc(F)cc4)c(=N)n(Cc4ccco4)c3nc12	83*	-20	-11	-6	65*	-11	i	13
O=C(N/N=C\c1ccc(CNS(=O)(=O)c2ccccc2)o1)C(=O)Nc1ccc(F)cc1	-8	9	5	-15	4	12	i	5
COc1ccc(N2CCN(c3cc(C)c4cccc(C)c4n3)CC2)cc1	-4	-1	-4	4	-8	-11	i	48
Cc1c(-c2ccccc2)sc2nc[nH]c(=S)c12	5	1	-1	-3	3	-17	i	-11
COc1ccc(OC)c(NC(=O)CSc2ccc3nnc(-c4ccccn4)n3n2)c1	-12	-3	-1	-63	-2	-23	i	-7
O=[N+]([O-])c1ccc(Cl)cc1N1CCOCC1	9	0	0	-4	5	-16	i	-2
COc1ccc(-c2cc3n(n2)CCc2nc4ccccc4n2-3)cc1	3	3	-6	-46	8	-20	i	-32
CN(/N=C/c1cc(Cl)ccc1O)C1=NS(=O)(=O)c2ccccc21	-9	-1	-4	8	20	-11	i	11
CCOCCCNC(C(=O)Nc1ccc(OC)c(Cl)c1)c1ccccc1 (configuration not stated)	20	-1	0	-9	2	7	i	7
CC(=O)N(Cc1ccc(F)cc1)C1=C(NCc2ccccc2)C(=O)c2ccccc2C1=O	-3	-22	-36	.	7	-19	i	.

Continued:
SMILES	eIF4H inh	MT1-MMP act inh	MT1-MMP act inh RFP	HIV Env fusion	PABP polyA inh	Yeast UUG start	Rce1 inh	CSC inhib
S=C(NCCc1ccc(Cl)cc1)NCc1ccco1	4	-5	-1	4	-5	.	i	1
C/C=C(\C)C(=O)NCCN1C2=NC[C@@H](Cc3ccccc3)N2C[C@H]1Cc1ccc(O)cc1	-6	0	2	-20	15	-7	i	-9
CC(C)c1ccccc1NC(=O)C1CCCN(C(=O)c2ccc(Cl)cc2)C1 (configuration not stated)	.	-1	-6	16	.	-11	.	.
O=C(CN1CCCC1)Nc1ccc(Oc2ccc(NC(=O)CN3CCCC3)cc2)cc1	-5	8	8	9	-2	3	i	15
Cc1nc2ccc(Br)cc2c2c1CC(CBr)O2 (configuration not stated)	-6	0	-1	-5	-6	-10	i	-16
COc1cc(NC(=O)C2CCN(S(=O)(=O)c3ccc(N4CCCC4=O)cc3)CC2)cc(OC)c1	-8	-1	-4	-34	2	-14	i	-13
O=C(c1cc(F)c(F)cc1Cl)N1CCN(CCc2ccccc2)CC1	0	-1	1	7	6	-7	i	8
O=C(c1cc2ccccc2o1)N1CC=C(c2ccccc2)CC1	-6	2	2	18	1	.	.	-8
Cc1cc(OC(=O)c2ccc(Cl)cc2Cl)nc(C)n1	0	3	-2	-29	-12	-7	i	-11
COc1cccc(CC(=O)Nc2cccc3ccccc23)c1	2	-1	-2	16	9	-1	i	-1
CCN(CC)CCNC(=O)c1c(O)c2cc(OC)c(OC)cc2[nH]c1=O	-3	7	3	-33	?	-20	i	0
CCOc1ccc(-n2nc(C(=O)NCCOC)c3ccccc3c2=O)cc1	5	0	3	.	-4	-1	.	-8
CCOC(=O)c1ccc(NC(=O)c2c(N)n(C)c(=O)[nH]c2=O)cc1	.	4	6	-7	.	-16	i	-7
CC(C)C(=O)Nc1csc(C(F)(F)F)c1-c1ccccc1	7	0	3	-1	2	.	.	12
O=C(Nc1ccccc1Cl)NC1(C(=O)NCC2CCCO2)CCCCC1 (configuration not stated)	6	3	4	-2	4	7	i	-7
CCOC(=O)C(CC)(CC)/C(C)=N/NC(=O)CC#N	1	-5	-2	-5	-5	-18	i	-16
CC(Oc1ccc2c3c(c(=O)oc2c1)CCCC3)C(=O)NCCCn1ccnc1 (configuration not stated)	9	2	2	-2	0	-15	i	6
